EPAC2 antag: validation of human EPAC2 antagonists; EPAC2 Rap1B BODIPY-GDP exchange, fluorescence; Potency, µM (titrated, usually from 112 µM), inactives show at the highest dose activity, negative = inhibition, actives largely listed as inhibitors; 16,000 tested, 1.7% active; AID 1645886; active means well fitted inhibition curve with a large enough effect; inconclusive means small, poorly fitted or top-dose-only effect; inactive means no such curve, though single readings can be large or run the other way;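 further: 100% = activation by cAMP agonist control; nearly all actives have a fitted effect of over 40% in size; the record reuses the description of the EPAC1 agonist screen; inactives centre near -10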
Target sequence (Q8WZA2 whole entry, looked up): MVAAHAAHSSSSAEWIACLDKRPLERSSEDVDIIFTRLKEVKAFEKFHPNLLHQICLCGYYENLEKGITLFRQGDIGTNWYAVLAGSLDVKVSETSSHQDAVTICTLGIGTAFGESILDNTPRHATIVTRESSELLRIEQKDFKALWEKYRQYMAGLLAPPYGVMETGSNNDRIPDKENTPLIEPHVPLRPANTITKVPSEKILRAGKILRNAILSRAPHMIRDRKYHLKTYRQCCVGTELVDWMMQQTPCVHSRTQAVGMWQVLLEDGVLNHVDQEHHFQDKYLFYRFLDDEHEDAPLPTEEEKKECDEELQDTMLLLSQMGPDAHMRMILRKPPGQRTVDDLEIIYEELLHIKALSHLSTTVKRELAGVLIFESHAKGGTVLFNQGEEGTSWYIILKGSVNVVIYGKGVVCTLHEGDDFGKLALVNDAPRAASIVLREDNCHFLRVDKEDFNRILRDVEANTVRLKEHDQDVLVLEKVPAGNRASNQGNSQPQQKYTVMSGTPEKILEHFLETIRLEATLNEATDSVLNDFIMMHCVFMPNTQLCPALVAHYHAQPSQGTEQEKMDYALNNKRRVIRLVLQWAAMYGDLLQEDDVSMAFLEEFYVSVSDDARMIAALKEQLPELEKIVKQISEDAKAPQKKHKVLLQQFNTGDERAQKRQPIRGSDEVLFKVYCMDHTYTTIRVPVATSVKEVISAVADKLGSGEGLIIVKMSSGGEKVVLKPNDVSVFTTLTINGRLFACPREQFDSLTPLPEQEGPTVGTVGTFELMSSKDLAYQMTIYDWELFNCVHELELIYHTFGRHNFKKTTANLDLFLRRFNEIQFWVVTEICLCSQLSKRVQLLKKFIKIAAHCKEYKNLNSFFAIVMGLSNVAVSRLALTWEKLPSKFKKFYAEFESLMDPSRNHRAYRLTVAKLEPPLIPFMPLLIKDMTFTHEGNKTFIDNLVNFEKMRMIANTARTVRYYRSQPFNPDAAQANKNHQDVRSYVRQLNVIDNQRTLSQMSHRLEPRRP
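Normalized against a 6.5 mM cAMP agonist control, compounds were tested on 100 nM EPAC2 exchanging Rap1B-bound BODIPY-GDP (250 nM) for 50 uM GDP. Fluorescence drop (ex 480, em 540 nm) was tracked at room temperature over 30 min at 5-min intervals.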
Active calls of the source: *; ? = inconclusive; & = joins results of further samples; [ ] = another dose, or the depositor's remark. Potency means the concentration at half of the fitted maximal effect. The list is partial; count on the stated rates, not on these rows.

SMILES | EPAC2 antag
CC1CN(Cc2cccn2-c2cccnc2)Cc2cc(Cl)ccc2O1 (stereo not given) | -28%
CO[C@H]1C[C@H](O[C@H]2[C@H](C)O[C@@H](O[C@@H]3/C(C)=C/C[C@@H]4C[C@@H](C[C@]5(C=C[C@H](C)[C@@H](C6CCCCC6)O5)O4)OC(=O)[C@@H]4C=C(C)[C@@H](O)[C@H]5OC/C(=C\C=C\[C@@H]3C)[C@]54O)C[C@@H]2OC)O[C@@H](C)[C@@H]1O | -24%
O=C(C[n+]1ccc(/C=C/c2c[nH]c3ccccc23)c2ccccc21)c1ccccc1 | -19%
FC(F)(F)c1ccccc1-c1ccc2ncnc(NC3CC3)c2c1 | -30%
COc1cc2c(cc1OC)/C(=C/c1ccc(N(C)C)cc1)C=C2 | -18%
CC(=O)NCCNc1cc(-c2ccccc2C(F)(F)F)ncn1 | -15%
C=C1C[C@@]23C[C@@]1(O)CC[C@@H]2[C@]12C=C[C@@H](O)[C@](C)(C(=O)O1)[C@@H]2[C@@H]3C(=O)O | -14%
COc1cc(SC)ccc1C(=O)N1CCC(Cc2ccccc2)CC1 | ?
Cc1cc2nc3ccc(=[N+](C)C)cc-3sc2cc1N | -11%
O=P(O)(O)OCC(O)CO (stereo not given) | 59%[activator]
N=C(CC(O)COc1ccccc1-c1ccccc1)N1CCCCC1 (stereo not given) | -6%
Cc1ccc(O)c(C(CCN(C(C)C)C(C)C)c2ccccc2)c1 (stereo not given) | -9%
CC(=O)OC1C[C@]2(C)C(C(C)=O)CCC2C2CCC3=CC(=O)CC[C@@]3(C)C12 (stereo not given in full) | -10%
O=C(Nc1ccccc1)OCC(CN1CCCCC1)OC(=O)Nc1ccccc1 (stereo not given) | -20%[56.6 µM]
CC(C)CN1CCC2(CC1)CCN(C(=O)c1cc(C(F)(F)F)cc(C(F)(F)F)c1)CC2 | -13%
C[C@@H]1CCC2[C@](C)(CO)C(O)CC[C@@]2(C)[C@@]12CC[C@](CO)(CCO)O2 (stereo not given in full) | 0%
CCNc1ncc2nc(-c3cccs3)c(=O)n(CCc3ccccc3)c2n1 | 23%
CN1CCN(c2ncc3ncc(=O)n(Cc4ccc(F)cc4)c3n2)CC1 | -19%
CCCCCCCCCCCCC/C=C/[C@@H](O)[C@H](CO)NC(C)=O | -26%[11.4 µM]
COc1ccc(Oc2ncc3nc(-c4ccc(OC)cc4)c(=O)n(Cc4cccs4)c3n2)cc1 | -8%

Looked up above:
C[C@@H]1CCC2[C@](C)(CO)C(O)CC[C@@]2(C)[C@@]12CC[C@](CO)(CCO)O2 (stereo not given in full) in EPAC2 antag has 0%
CC(=O)OC1C[C@]2(C)C(C(C)=O)CCC2C2CCC3=CC(=O)CC[C@@]3(C)C12 (stereo not given in full) in EPAC2 antag has -10%
CCCCCCCCCCCCC/C=C/[C@@H](O)[C@H](CO)NC(C)=O in EPAC2 antag has -26%[11.4 µM]
COc1ccc(Oc2ncc3nc(-c4ccc(OC)cc4)c(=O)n(Cc4cccs4)c3n2)cc1 in EPAC2 antag has -8%
C=C1C[C@@]23C[C@@]1(O)CC[C@@H]2[C@]12C=C[C@@H](O)[C@](C)(C(=O)O1)[C@@H]2[C@@H]3C(=O)O in EPAC2 antag has -14%
CCNc1ncc2nc(-c3cccs3)c(=O)n(CCc3ccccc3)c2n1 in EPAC2 antag has 23%

Three entries picked at random from those above:
SMILES | EPAC2 antag
CC(C)CN1CCC2(CC1)CCN(C(=O)c1cc(C(F)(F)F)cc(C(F)(F)F)c1)CC2 | -13%
CC1CN(Cc2cccn2-c2cccnc2)Cc2cc(Cl)ccc2O1 (stereo not given) | -28%
COc1cc2c(cc1OC)/C(=C/c1ccc(N(C)C)cc1)C=C2 | -18%

Continuation.
SMILES | EPAC2 antag
CC(=O)c1ccc(F)c(-c2cc(C)cc3c2OC(CNC(=O)C[C@@H]2C[C@@H](C)NC(=S)N2)C3)c1 (stereo not given in full) | 3%
FC(F)(F)c1ccccc1-n1ccnc1 | -10%
COc1ccc(Oc2ncc3nc(-c4cn(C)c5ccccc45)c(=O)n(CCC#N)c3n2)cc1 | -12%
O=C(O)c1ccncc1 | -10%
O=c1c(-c2ccccc2)nc2cncnc2n1Cc1ccccc1Cl | ?
CN(C)c1ccc(-c2cncnc2NCCN2CCOCC2)cc1 | -29%
CCC1(C2CCN(C(=O)c3csc(C(C)=O)c3)CC2)NC(=O)N(CCc2scnc2C)C1=O (stereo not given) | ?
COC(=O)C1CCN(Cc2ccc3c(c2)CN(C(=O)c2cc4cc(F)ccc4[nH]2)CCO3)CC1 | ?
O=C(c1cc(C(F)(F)F)cc(C(F)(F)F)c1)N1CCC2(CCCN(Cc3ccccc3)C2)CC1 | ?
CC(C)CN1CCC2(CC1)CCN(C(=O)c1cnccn1)CC2 | -12%
CNc1ccccc1C(=O)N1CCc2c([nH]c3ccccc23)C1=O | 1%
COC1/C=C/OC2(C)Oc3c(C)c(O)c4c(O)c(c(/C=N/N5CCN(C)CC5)c(O)c4c3C2=O)NC(=O)/C(C)=C/C=C/C(C)C(O)C(C)C(O)C(C)C(OC(C)=O)C1C (stereo not given) | ?
CCN1CCN(C(=O)N[C@@H](C(=O)N[C@@H]2C(=O)N3C(C(=O)O)=C(CSc4nnnn4C)CS[C@H]23)c2ccc(O)cc2)C(=O)C1=O | 8%
CC1=CC2C(CC1=O)C(C)=CCC2C(C)C (stereo not given) | ?
CCN(CC)CCOc1ccc(C(O)(Cc2ccc(Cl)cc2)c2ccc(C)cc2)cc1 (stereo not given) | -3%
Cc1ccc(C(=O)C[n+]2cccc3cccc(O)c32)cc1 | 42%[activator]
COc1cc2c(cc1OC)C(c1ccccc1)=NCC2 | 24%
COc1cccc(-c2nc(N3CCNCC3)c3ccccc3n2)c1 | -7%
CCCCC(=O)O[C@H]1CC[C@H]2[C@@H]3CCc4cc(O)ccc4[C@H]3CC[C@]12C | 50µM*
O=C(c1cccc(F)c1)N1CCC2(CCCN(c3ccc(-c4ccccc4)cc3)C2)CC1 | -9%
CC(C)c1cccc(O)c(=O)c1 | -3%[239 µM]
CN1CCN(c2ncc3nc(-c4ccccc4)c(=O)n(Cc4cccs4)c3n2)CC1 | -34%
CC(=O)N[C@H](Cc1c[nH]c2ccccc12)C(N)=O | 3%
COc1ccc(C(=O)N2CCC[C@@]3(CCN(Cc4ccccc4)C3)C2)cc1 | -18%
c1cncc(OC2CCN(Cc3ccc4c(c3)CN(Cc3nc5ccccc5s3)CCO4)CC2)c1 | -1%
Cc1cc(C)c2nccc(C)c2c1 | ?
[N-]=[N+]=Nc1nc2c(N)ncnc2n1C1OC(CO)C(O)C1O (stereo not given) | -18%
Cc1cc(=O)c2c(O)cc(O)c(C)c2o1 | -16%
O=C(c1cccc(F)c1)N1CCC[C@@]2(CCN(c3ccccn3)C2)C1 | -15%
CCC1(C2CCN(Cc3cccc4ccccc34)CC2)NC(=O)N(Cc2ccc3c(c2)OCO3)C1=O (stereo not given) | ?
O=S(=O)(c1ccccc1)N1CCC2(CCCN(Cc3nccs3)C2)CC1 | ?
COCCNc1ccnc(-c2ccccc2C)n1 | -18%
O=C(c1csnn1)N1CCC[C@@]2(CCN(c3ncccn3)C2)C1 | -11%
CCCCC1C(=O)N(c2ccccc2)N(c2ccc(O)cc2)C1=O (stereo not given) | -18%
Cc1cccc(CNc2ncncc2-c2ccccc2Cl)c1 | ?
Cc1noc(C)c1-c1nccc(N2CCOCC2)n1 | -18%
COCCn1c(=O)c(-c2cc(F)cc(F)c2)nc2cnc(N3CCNCC3)nc21 | -21%
Cc1ccccc1-c1nc(NC2CC2)c2ccccc2n1 | -14%
Cc1ccccc1-c1ccc2ncnc(NCc3cccnc3)c2c1 | ?
CNC(CC(=O)O)C(=O)O (stereo not given) | -11%

In another format: 2 of the compounds above
mol	EPAC2 antag
COCCNc1ccnc(-c2ccccc2C)n1	-18%
Cc1cccc(CNc2ncncc2-c2ccccc2Cl)c1	?

The results go on.
SMILES | EPAC2 antag
CNc1nc(-c2ccoc2)nc2ccccc12 | -7%
NC(Cc1ccccc1)C(=O)O (stereo not given) | 7%
O=C(c1ccco1)N1CCC2(CC1)CCN(c1cccc(-c3ccccc3)c1)CC2 | -22%
O=C(NCC1Cc2cc(F)cc(-c3cnccn3)c2O1)c1cccc(-c2ccccc2F)c1 (stereo not given) | ?
c1ccc(CNc2ncncc2-c2cccnc2)cc1 | -9%
O=C(O)COc1ccccc1/C=N/NC(=O)c1ccncc1 | -2%
CCS(=O)(=O)N(C)[C@@H]1c2cc(C#N)ccc2OC(C)(C)[C@H]1O | ?
O=c1c(-c2ccc(F)c(F)c2)nc2cncnc2n1C1CC1 | -4%
CC(=O)c1c(O)c(C)c(O)c2c1OC1=CC(=O)C(C(C)=O)C(=O)[C@@]12C (stereo not given in full) | ?
OC[C@H]1O[C@@H](OC[C@H]2O[C@@H](O)[C@H](O)[C@@H](O)[C@@H]2O)[C@H](O)[C@@H](O)[C@@H]1O | -4%
COc1ccc(-c2nc3cnc(Oc4cccc(Cl)c4)nc3n(CCC#N)c2=O)cc1 | 17%
Cc1ccc2c(C)nc(N3CCCC(C(=O)NC(C)(C)CO)C3)nc2c1 (stereo not given) | -15%
COc1cccc(CN2CCc3nnc(CCc4ccccc4)n3CC2)c1OC | -2%
N#Cc1cccc(-c2nc3cnc(N4CCOCC4)nc3n(C3CC3)c2=O)c1 | 2%
Cc1cc(C)nc(-c2cccc3c2OC(CNC(=O)c2ccc(Cn4nc(C)cc4C)cc2)C3)n1 (stereo not given) | -5%
CC(=O)[C@H]1CC[C@H]2[C@@H]3CCC4=CC(=O)CC[C@]4(C)[C@H]3CC[C@]12C | -21%&-25%&-23%&-23%
COCC(=O)Nc1cc(C(=O)N2CCSCC2)cc2nc(-c3ccccc3)n(C)c12 | -7%
COc1ccc2[nH]cc(CCNc3ccnc(-c4ccccc4C(F)(F)F)n3)c2c1 | -27%
CCNc1ncc2nc(-c3ccc(F)cc3)c(=O)n(Cc3ccc(F)cc3)c2n1 | 7%
O=S1(=O)CCOCCCN1Cc1ccccc1Br | -20%
COCC(=O)Nc1cc(C(=O)N2CC3CC4CC(C3)CC2C4)c2c(c1)nc(-c1ccncc1)n2C | -6%
C#CCN(C)CCCOc1ccc(Cl)cc1Cl | ?
COc1cccc(C(=O)NCc2nc(-c3cccc(NC(=O)c4ccoc4C)c3)oc2C)c1 | ?
CCC(=O)c1ccc(O)cc1 | 16%
CN(C)c1c(Cl)cc(/C=C/c2ccnc3ccccc23)cc1Br | ?
CN1CCC(N(Cc2cccs2)c2ccccc2)CC1 | 16%
Cc1ccccc1C(OCCN(C)C)c1ccccc1 (stereo not given) | -16%&21%&-9%
COc1ccc(-c2noc(CC(=O)O)c2-c2ccc(OC)cc2)cc1 | -18%
O=c1[nH]cnc2[nH]cc(CN3CCCCC3)c12 | 5%
COC(=O)c1ccc(-c2cccc3c2OC(CNC(=O)c2ccc4c(c2)OCCO4)C3)nc1 (stereo not given) | -13%
NC(=S)N=Nc1ccc(NN=C(N)N)cc1 | -41%
CC(C)C(NC(=O)c1ccoc1)c1nnc2n1CCN(C(=O)/C=C/c1ccc(F)cc1)CC2 (stereo not given) | -13%
COc1cccc(-c2nc3cc(SC)ccc3cc2CN(C(=O)c2csc(C)n2)C2CC2)c1 | 16µM*
COc1ccccc1-c1cc(=O)c2cccc(OC)c2o1 | ?
O=C1C(c2[nH]c3ccc(S(=O)(=O)O)cc3c2O)=Nc2ccc(S(=O)(=O)O)cc21 | 8%&16%&-12%
COC(=O)[C@H](CC(C)C)NS(=O)(=O)N[C@@H](CC(C)C)C(=O)OC | ?
COCCNc1ccnc(-c2ccccc2CN(C)C)n1 | -8%
CC[C@H]1OC(=O)[C@H](C)C(=O)[C@H](C)[C@@H](O[C@@H]2O[C@H](C)C[C@H](N(C)C)[C@H]2O)[C@](C)(OC)C[C@@H](C)C(=O)[C@H](C)[C@H]2N(CCCCn3cnc(-c4cccnc4)c3)C(=O)O[C@]12C | 14%&15%
Nc1ccn([C@@H]2O[C@H](CO)[C@@H](OP(=O)(O)O)[C@H]2O)c(=O)n1 | 0%
CC(C)Cc1nc2cc(NS(=O)(=O)N(C)C)cc(C(=O)N3CCN(c4ccccc4)CC3)c2n1C | -16%
COCC(=O)Nc1cc(C(=O)N2CCCC(C(C)=O)C2)cc2nc(-c3ccccc3)n(C)c12 (stereo not given) | -8%
Cn1ccc(O)c(C#N)c1=O | -19%
O=C(/C=C/c1ccccn1)NCC1Cc2cccc(-c3ncccn3)c2O1 (stereo not given) | 12%
N#Cc1cccc(NC(=O)N2CCCC3(CCN(C(=O)c4cnccn4)CC3)C2)c1 | -15%
N#CCCn1c(=O)c(-c2cccc(C#N)c2)nc2cnc(Oc3ccccc3)nc21 | -19%
c1ccc(CNc2ccnc(-c3ccc4c(c3)OCO4)n2)cc1 | -12%
CC(=O)OCOC(c1ccc2ccccc2c1)P(=O)(OCOC(C)=O)OCOC(C)=O (stereo not given) | -1%[151 µM]
CCCC(=O)NCCc1c2n(c3ccc(OC)cc13)CCCc1ccccc1-2 | 14µM*
OCc1ccc(Cl)cc1Cl | 18%
C1=Cc2ccccc2/C1=C/c1ccc(/C=C2\C=Cc3ccccc32)cc1 | 17%
Going on with the list:
SMILES | EPAC2 antag
O=C(O)[C@H](CC(=O)N1C[C@H]2CCCC[C@H]2C1)Cc1ccccc1 | 3%
N[C@@H](CSS(=O)(=O)O)C(=O)O | -11%&6%&-12%
O=C(/C=C/c1ccc(O)c(O)c1)O[C@@H]1C[C@@](O)(C(=O)O)C[C@H](O)[C@@H]1O | -9%
CCOC(=O)c1ccc(-c2c(-c3ccc4c(c3)OCO4)noc2-c2ccsc2)cc1F | -18%
CC(=O)Oc1c(C)cc(OCC(O)CNC(C)C)c(C)c1C (stereo not given) | 0%
COc1ccccc1N1CCN(CC(O)COc2cccc3ccccc23)CC1 (stereo not given) | ?

Screening results deposited in PubChem BioAssay by National Center for Advancing Translational Sciences (NCATS).
